HCMV UL50-53 inh = disrupts HCMV UL50-UL53 complex binding; hit rate 0.15% among 190,000; HTRF UL50-UL53 interaction, normalized percent inhibition; AID 1918969; inhibition, % (test concentration not listed);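 active means both replicates at 50% or more, plus weaker picks with an unusually low signal ratio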;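 further: stock transfer was 100 nL into about 20 µL; 0% = negative control wells and 100% = wells with untagged competitor protein; inactives centre near -12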
Sa growth inh = blocks Staphylococcus aureus growth; S. aureus RN4220 growth, OD600, 20 h, 42 °C; active compounds read low; AID 720641; hit rate 0.53% among 170,000; relative growth, % (concentration not given with the values);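 active means growth at 42 °C up to 50% and 20 or more points under that at 30 °C, or under 10% at both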;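 further: 300 nL library stock went into each well; scaled to the means of positive and negative controls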
GIV-Gai inh = blocks GIV peptide binding to rat Galpha-i3; Galpha-i3/FITC-GIV peptide fluorescence polarization, 90 min; active compounds read low; scaled: aluminum fluoride 0%, vehicle 100%; percent of control (FP), % (no concentration beside the values); hit rate 0.42% among 210,000;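 active means replicate mean at 85% of control or lower, very high polarization wells dropped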;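 further: wells of about 15 µL received 100 nL stock; the first replicate is given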
Target sequence (P08753 whole entry, looked up): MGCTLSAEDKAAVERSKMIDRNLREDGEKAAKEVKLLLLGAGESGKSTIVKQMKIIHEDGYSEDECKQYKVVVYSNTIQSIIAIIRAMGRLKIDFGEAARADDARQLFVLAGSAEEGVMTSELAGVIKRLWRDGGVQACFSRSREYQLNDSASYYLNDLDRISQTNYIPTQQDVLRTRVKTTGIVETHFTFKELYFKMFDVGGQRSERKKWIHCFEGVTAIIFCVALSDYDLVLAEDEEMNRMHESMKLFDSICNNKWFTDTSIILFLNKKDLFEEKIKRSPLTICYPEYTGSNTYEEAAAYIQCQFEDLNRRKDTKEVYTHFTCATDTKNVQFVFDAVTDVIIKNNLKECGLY
Sa growth inh second temp = second read-out of Sa growth inh, no call of its own (marks repeat the call); relative growth, %; measured here: growth at 30 °C;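 optical density after 20 h as mean of two plates; 100% = untreated growth and lower means inhibition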
* = called active by the depositor; nt = not tested or not shown.

SMILES | HCMV UL50-53 inh | Sa growth inh | Sa growth inh second temp | GIV-Gai inh
CC1SC(c2ccc(F)cc2)NC1=O (stereo not given) | -15 | 80 | 81 | nt
Cc1nc2cc(NC(=O)c3cccc([N+](=O)[O-])c3)ccc2s1 | -1 | nt | nt | 105
Cc1cc(=O)oc2cc(OCC(=O)OCc3cn4cc(Cl)ccc4n3)ccc12 | -11 | 105 | 102 | nt
COc1ccc(NC(=O)N(Cc2nnc3n2CCCCC3)c2ccc(OC)c(Cl)c2)cc1 | nt | 77 | 89 | 98
Cn1c(=O)c2c(nc(NCc3ccccc3)n2Cc2ccccc2Cl)n(C)c1=O | -18 | 94 | 92 | 99
COC(C(=O)Nc1ccc2c(c1)OCO2)c1ccccc1 (stereo not given) | 4 | 104 | 81 | 105
COc1ccc(N2CCN(c3c(S(=O)(=O)c4ccccc4)cnc4ccc(Cl)cc34)CC2)cc1 | nt | 100 | 89 | 107
O=C(OCC1CCCN2CCCCC12)c1ccc2c(c1)OCO2 (stereo not given) | 7 | 106 | 102 | nt
Cc1csc2nc(CCNS(=O)(=O)c3ccccc3)cn12 | nt | 110 | 88 | 106
COc1ccc(OC)c(NC(=O)c2cc3c(CO)cnc(C)c3oc2=O)c1 | -65 | nt | nt | 97
Cc1ccc(Cl)cc1N1CCN(C(=O)C2CCCN(S(=O)(=O)c3ccc(Br)s3)C2)CC1 (stereo not given) | 6 | 96 | 104 | 108
CCOC(=O)CSc1nc2cccnc2s1 | 6 | 97 | 103 | 107
CCc1ccc(NC(=O)Cn2cc(S(=O)(=O)NC)c(S(=O)(=O)NC)c2)cc1 | -11 | nt | nt | 107
CCS(=O)(=O)N1CCc2cc(C(=O)Nc3ccccc3C(=O)OC)ccc21 | -8 | nt | nt | 116
CCOc1ccc(NC(=O)Cn2c(=O)c(CNc3ccccc3)cc3cc4c(cc32)OCCO4)cc1 | nt | 83 | 94 | 100
N#Cc1ncoc1-c1cccc(Cl)c1 | -9 | 112 | 90 | 101
CCC(C)Nc1nc(-c2ccc(Cl)cc2)cs1 (stereo not given) | -21 | 90 | 86 | nt
N#Cc1ccc(COC(=O)c2cncn2-c2ccc(F)cc2)cc1 | -5 | 75 | 94 | nt
Cc1ccc(Cn2cccc(NS(C)(=O)=O)c2=O)cc1 | -6 | 111 | 83 | 104
Cc1ccc(C(=O)NCC2COc3ccccc3O2)o1 (stereo not given) | -8 | 92 | 87 | nt
CCc1c(C)sc2c1CCN(Cc1ccccc1)C2c1ccccc1 (stereo not given) | nt | -1.1* | -0.5* | 113
O=C(CCN1CCN(C(c2ccccc2)c2ccccc2)CC1)N/N=C/c1ccc(O)cc1O | -60 | 81 | 67 | 105
CN1CCN(C(C#N)c2ccc(O)cc2)CC1 (stereo not given) | 0 | 112 | 80 | nt
Cc1ccc2cc3c(=O)n(C)c(=O)n(C)c3nc2c1 | -39 | 88 | 85 | 104
O=C(CSc1nc2c(c(=O)n1-c1ccccc1)SCC2)N1CCCC1 | -62 | 90 | 93 | 106
CC1CCN(c2ccc(-c3cccc(NS(=O)(=O)c4cccs4)c3)nn2)CC1 | nt | 108 | 88 | 106
O=C(O)CCNC(=O)c1ccc(Br)o1 | -10 | 108 | 86 | 99
CSc1nnc2c(n1)OC(c1ccccc1C(F)(F)F)Nc1ccccc1-2 (stereo not given) | -35 | nt | nt | 107
Cc1sc2ncn(CC(=O)N(C)c3ccc(C(C)C)cc3)c(=O)c2c1S(=O)(=O)N1CCC(C)CC1 | 2 | 108 | 91 | 103
Cc1cc(Nc2cccc(Cl)c2)nc2ccc(NC(=O)Cc3cccc(C(F)(F)F)c3)cc12 | nt | 96 | 83 | 101
C=CCNC(=O)Cn1nc(-c2ccccc2F)ccc1=O | -10 | 92 | 94 | 100
COc1ccccc1C(=O)NCC(=O)O | -22 | 101 | 96 | 105
COc1ccccc1NC(=O)Nc1ccccc1 | 0 | 96 | 101 | 107
COc1ccc(-c2ccc(CCC(=O)O)n2-c2ccccc2O)cc1 | 0 | 127 | 107 | 115
O=C(c1cccnc1Oc1ccccc1)n1ccc(-c2cccs2)n1 | -13 | 85 | 87 | 96
Cc1nc(SC2CCCCN(C(=O)c3ccc(Cl)cc3)C2=O)c2c3c(sc2n1)CCCC3 (stereo not given) | nt | 118 | 84 | 101
CC(=O)Nc1nc2c(s1)Cc1ccccc1-2 | -2 | 110 | 99 | 107
N#Cc1c(NC(=O)C2CCCO2)sc2c1CCC2 (stereo not given) | -16 | 102 | 89 | nt
CCc1ccccc1NC(c1ccccn1)c1ccc2cccnc2c1O (stereo not given) | -9 | nt | nt | 105
CC(C)c1ccc(NN2C(=O)CC(c3ccccc3)C2=O)cc1 (stereo not given) | -14 | 99 | 91 | 101
CC1(C)CC(NC(=O)c2ccc(-n3cnnn3)cc2)CC(C)(C)N1 | -9 | 90 | 90 | nt
CCN(CCS(=O)(=O)c1ccccc1)S(=O)(=O)c1ccc(C)cc1 | -37 | 92 | 88 | 102
Cc1nn(-c2cc(N3CCOCC3)ncn2)c(C)c1CCC(=O)NC1CCCCC1 | -22 | nt | nt | 97
Cc1c(NC(=O)c2sc3ccccc3c2Cl)cccc1-c1nc2ccccc2o1 | -41 | 106 | 91 | 101
COC(=O)c1nc[nH]c1C(=O)OC | 9 | 109 | 92 | nt
Cc1cc(-c2ccc(S(=O)(=O)N3CCc4ccccc4C3)s2)n[nH]1 | 7 | 98 | 91 | 103
CCSCCOC(=O)C1=C(C)NC2=C(C(=O)CCC2)C1c1ccc(OCc2ccccc2)c(OC)c1 (stereo not given) | -15 | nt | nt | 101
O=C(O)Cc1c(Sc2ccccc2)c2ccccc2n1Cc1ccccc1 | -8 | 19 | 14 | nt
O=C(Nc1ccc(OC(F)(F)F)cc1)NC1CCN(c2nccc(C(F)(F)F)n2)CC1 | -22 | 93 | 87 | 106
CCN(CC)C(=O)COc1ccc(-c2nnc(Nc3ccc(OC)c(C(N)=O)c3)c3ccccc23)cc1 | nt | 110 | 64 | 99
CCCSc1nc2c(c(=O)[nH]1)C(c1ccc(F)cc1F)CC(=O)N2 (stereo not given) | -8 | 96 | 98 | 96
COc1ccc(C(=O)N2CCN(c3ccc(N4CCOCC4)nn3)CC2)cc1 | nt | 85 | 86 | 99
COc1ccc2[nH]cc(CCNC(=O)c3cccc(NC(=O)c4nnc(CC(C)C)s4)c3)c2c1 | -4 | nt | nt | 105
COC(=O)c1c(I)cnn1C | 0 | 96 | 105 | nt
NC(=O)c1c(O)c2c([nH]c1=O)CCCC2 | -18 | 94 | 90 | 108
O=C(Nc1nncs1)C12CC3CC(CC(C3)C1)C2 | 6 | 94 | 94 | nt
Cc1c(N)cccc1-c1nc2ccccc2o1 | -9 | 99 | 71 | 108
Cc1noc2ncnc(Nc3ccccc3)c12 | -14 | 99 | 76 | 101
CCCCCN(c1nc2nc(C)c(Cl)c(C)n2n1)S(=O)(=O)c1ccc(Cl)cc1 | -24 | nt | nt | 104
COc1ccccc1CN(C(C)=O)C1CC(C)(C)N(C(C)=O)C(C)(C)C1 | -6 | 101 | 81 | nt

2 entries from above, as tab-separated lines.
mol	HCMV UL50-53 inh	Sa growth inh	Sa growth inh second temp	GIV-Gai inh
CCCSc1nc2c(c(=O)[nH]1)C(c1ccc(F)cc1F)CC(=O)N2 (stereo not given)	-8	96	98	96
Cc1c(N)cccc1-c1nc2ccccc2o1	-9	99	71	108

The list continues.
SMILES | HCMV UL50-53 inh | Sa growth inh | Sa growth inh second temp | GIV-Gai inh
CCCOc1ccc(C2NC(=O)NC(C)=C2C(=O)OCCCBr)cc1 (stereo not given) | 5 | nt | nt | 105
CN(C)c1ccc(NC(=O)NCc2ccccc2)cc1 | -14 | 97 | 88 | 102
CC1CCN(C(=O)CSc2nnc(-c3ccccc3Cl)o2)CC1 | 8 | 114 | 77 | 107
Cc1nc(-c2cc(S(=O)(=O)N3CCC(C(=O)N4CCc5ccccc54)CC3)c(C)s2)no1 | -12 | nt | nt | 106
CCOC(=O)c1c(NC(=O)COc2cccc(C)c2C)sc(C(C)=O)c1C | 12 | 96 | 95 | 108
O=C(OCC1CC1)c1cnc(Sc2ccccn2)nc1C(F)(F)F | -21 | 70 | 73 | 99
C#CCOc1ccc2ccccc2c1CO | -35 | 102 | 94 | 112
O=C(Nc1sccc1C(=O)N1CCOCC1)c1cccnc1 | -10 | 107 | 82 | 107
CCCSCCCNC(=O)Cn1c(C)nc2onc(C)c2c1=O | -14 | nt | nt | 103
N=c1sccn1CC(=O)O | 0 | 117 | 86 | nt
Cc1cc(C)cc(-c2nc(-c3cccnc3)no2)c1 | -15 | nt | nt | 103
CCc1ccc(C(=O)CCC(=O)O)s1 | -22 | 85 | 93 | 103
CN1CCN(C(CNC(=O)Cc2ccc(F)cc2)c2ccc(F)cc2)CC1 (stereo not given) | -29 | 98 | 88 | 96
Cc1csc2nc(COC(=O)c3ccccc3NC(=O)c3ccccc3Cl)cc(=O)n12 | nt | 70 | 85 | 102
COc1cc(C(=O)COC(=O)C2CC(=O)N(Cc3ccco3)C2)cc(OC)c1OC (stereo not given) | 3 | 94 | 102 | nt
O=C(OCCCN1CCCCC1)c1ccc(O)cc1 | 0 | 131 | 95 | nt
ClCc1csc(-c2ccccc2)n1 | -10 | 116 | 90 | nt
O=C(/C=C/c1ccc(S(=O)(=O)N2CCOCC2)cc1)N(c1ccccn1)C1CCCCC1 | -7 | 92 | 94 | nt
CCOc1ncccc1C(=O)NNc1ccc(S(=O)(=O)N2CCN(C)CC2)cn1 | 6 | 117 | 94 | nt
CCOc1cc(C(=O)NCC(c2ccc(N(C)C)cc2)N2CCOCC2)cc(OCC)c1OCC (stereo not given) | nt | 87 | 92 | 98
O=C(O)CCSc1nnc(-c2cccs2)o1 | 0 | 103 | 91 | 97
CNCc1ccc(OC)cc1 | -39 | 95 | 95 | nt
CC/C(C)=N/NS(=O)(=O)c1ccccc1 | 6 | 102 | 105 | 107
CCc1ccc(-c2[nH]nc3nc(-c4ccc(OC)cc4)cc(C(=O)NCCCOC)c23)cc1 | nt | 120 | 88 | 96
Cc1cccc(N2CCN(C(=O)c3cc4ccc5cccnc5c4[nH]3)CC2C)c1 (stereo not given) | nt | 71 | 83 | 100
CCc1ccc(N(CC)c2ncnc3c2nc2n3CCCCC2)cc1 | nt | 84 | 83 | 104
Cc1nc(N(C)C)cc(N2CCN(C(=O)c3ccccc3Br)CC2)n1 | -41 | nt | nt | 102
O=C(Oc1ccc(C2Oc3ccccc3C3CC(c4ccc(Cl)cc4)=NN32)cc1)c1ccccc1 (stereo not given) | -8 | nt | nt | 98
CCOc1ccccc1CN1C(=O)c2c(C(=O)OC)ncn2CC1(C)C(=O)NC1CCCC1 (stereo not given) | -17 | nt | nt | 99
O=c1[nH]c(CSc2nc3ccccc3o2)nc2ccccc12 | nt | 99 | 92 | 104
O=C(Cc1c[nH]c2ccccc12)NC1CCN(c2nc3ccccc3s2)CC1 | 2 | nt | nt | 102
CCN1C(=O)/C(=C2\SC(=S)N(c3cc(OC)ccc3OC)C2=O)c2ccccc21 | -2 | nt | nt | 98

Filtered by structure, the entries above with a thiophene ring, fused or not (14)
SMILES | HCMV UL50-53 inh | Sa growth inh | Sa growth inh second temp | GIV-Gai inh
Cc1ccc(Cl)cc1N1CCN(C(=O)C2CCCN(S(=O)(=O)c3ccc(Br)s3)C2)CC1 (stereo not given) | 6 | 96 | 104 | 108
CCc1c(C)sc2c1CCN(Cc1ccccc1)C2c1ccccc1 (stereo not given) | nt | -1.1* | -0.5* | 113
CC1CCN(c2ccc(-c3cccc(NS(=O)(=O)c4cccs4)c3)nn2)CC1 | nt | 108 | 88 | 106
Cc1sc2ncn(CC(=O)N(C)c3ccc(C(C)C)cc3)c(=O)c2c1S(=O)(=O)N1CCC(C)CC1 | 2 | 108 | 91 | 103
O=C(c1cccnc1Oc1ccccc1)n1ccc(-c2cccs2)n1 | -13 | 85 | 87 | 96
Cc1nc(SC2CCCCN(C(=O)c3ccc(Cl)cc3)C2=O)c2c3c(sc2n1)CCCC3 (stereo not given) | nt | 118 | 84 | 101
N#Cc1c(NC(=O)C2CCCO2)sc2c1CCC2 (stereo not given) | -16 | 102 | 89 | nt
Cc1c(NC(=O)c2sc3ccccc3c2Cl)cccc1-c1nc2ccccc2o1 | -41 | 106 | 91 | 101
Cc1cc(-c2ccc(S(=O)(=O)N3CCc4ccccc4C3)s2)n[nH]1 | 7 | 98 | 91 | 103
Cc1nc(-c2cc(S(=O)(=O)N3CCC(C(=O)N4CCc5ccccc54)CC3)c(C)s2)no1 | -12 | nt | nt | 106
CCOC(=O)c1c(NC(=O)COc2cccc(C)c2C)sc(C(C)=O)c1C | 12 | 96 | 95 | 108
O=C(Nc1sccc1C(=O)N1CCOCC1)c1cccnc1 | -10 | 107 | 82 | 107
CCc1ccc(C(=O)CCC(=O)O)s1 | -22 | 85 | 93 | 103
O=C(O)CCSc1nnc(-c2cccs2)o1 | 0 | 103 | 91 | 97

High-throughput results as filed in PubChem.
